Assay outcomes (PubChem BioAssay)
NPYLR7 ag: agonists of mosquito NPYLR7 receptor, primary screen, cell-based, Aedes aegypti, calcium fluorescence, mosquito biting behavior | Aedes aegypti neuropeptide Y-like receptor 7 (NPYLR7) | HEK293T NPYLR7/Galpha15, GCaMP6s calcium fluorescence | activation, % at 10 µM | 0.15% of 270,000 active | AID 1259423, 2018; in the data active = activation above about 40%;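 also: 0% = vehicle and 100% = reference agonist at the receptor; some compounds past the cut are filed as inactive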
NPYLR7 ag max-min: also measured in NPYLR7 ag; calls as there; activation, %; measured here: Max-Min RFU normalised activation; some inactives read as strong as hits;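 span of the calcium signal over five minutes; 0% = vehicle and 100% = native peptide agonist; compound fluorescence can raise it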
Starred values were filed as active, the others as inactive. A portion of the library (hit frequency here may not be typical).

SMILES	NPYLR7 ag	NPYLR7 ag max-min
Cc1nc(SCc2cccc(C(=O)N3CCCC3)c2)nc(N2CCN(c3ccccc3Cl)CC2)c1C	13	15
COCCCN(CC(=O)N1CCc2sccc2C1c1ccc(OC)cc1)S(=O)(=O)c1cccc(C(F)(F)F)c1 (stereo unspecified)	-6	2
COc1ccccc1-n1c(Cc2ccccc2)nnc1SCc1ccc(C(=O)NC2CC2)cc1	-9	5
CCOC(=O)C(C)Sc1ccc2nnc(-c3ccccn3)n2n1 (stereo unspecified)	-2	-5
CCCS(=O)(=O)Nc1ccc(N(C)C)c(CN(C(=O)C(C)(C)C)C2CC2)c1	-21	-11
C=c1ccccc1=C1NN=C(c2nnn(-c3ccc(C)cc3)c2C)O1	2	8
COc1ccc(NC(=O)NCCS(=O)(=O)c2c(C)[nH]c3ccccc23)cc1	4	2
COc1cc(C)c(C)cc1S(=O)(=O)NCCn1nc(-c2ccccc2)ccc1=O	-1	-3
CN1CCCC(CN(CCc2ccccc2)C(=O)c2ccccc2-c2ncc[nH]2)C1 (stereo unspecified)	-2	-5
Cc1ccc(-c2nc3c(c(SCC(=O)N(C)c4ccccc4)n2)Cc2c(CO)cnc(C)c2O3)cc1	-3	3
COc1ccc(C(=O)N2CCN(c3cc(Cl)nc(SCC(=O)N4CC5(C)CC4CC(C)(C)C5)n3)CC2C)cc1 (stereo unspecified)	-5	3
Cc1oc2c(cc(NS(=O)(=O)c3cccc([N+](=O)[O-])c3)c3ccccc32)c1C(=O)OC(C)C	-4	-8
CSCC[C@@H](CO)NC(=O)c1cnn(-c2ccc(C)c(C)c2)c1N	0	7
C[S+](C)C1C(=O)NC(=O)N(c2ccccc2F)C1=O (stereo unspecified)	5	3
CCOc1cc(C(=O)Oc2coc(CSc3nccc(C)n3)cc2=O)cc(OCC)c1OCC	-11	-4
CCc1cc(C)cc(OCC(O)Cn2c[n+](C)c3cc(C)c(C)cc32)c1 (stereo unspecified)	6	2
CCc1c(O)nc(SCCN(CC)CC)n(-c2ccccc2)c1=O	-4	-4
O=C(O)C1CC(O)CN1S(=O)(=O)c1ccc(Cl)c(Cl)c1 (stereo unspecified)	8	8
CC(C)Cn1cncc1CNC(=O)c1cn(CC2CCCO2)nn1 (stereo unspecified)	-7	-8
COc1ccc(CN2CCn3nc(C(=O)Nc4ccc(C(C)C)cc4)cc3C2=O)cc1	5	-2
Cc1nn(C)c(Cl)c1CN(CCN1CCOCC1)Cc1ccco1	-6	-11
C=CCN(Cc1ccccc1OCC)C(=O)c1nc2c(C)cccn2c1F	0	-2
COc1ccc(Nc2nnc(-c3cc4cc(OC)ccc4oc3=O)s2)c(OC)c1	1	3
CC(C)(C)c1ccc(COc2coc(CN3CCCN(S(=O)(=O)c4cc(C(F)(F)F)ccc4C(F)(F)F)CC3)cc2=O)cc1	16	10
Cc1onc(-c2ccccc2Cl)c1C(=O)Nc1cccc(Br)c1	-8	-13
CCCn1c(C)cn2c3c(=O)n(CC(N)=O)c(=O)n(C)c3nc12	8	8
Cc1nc2nc3ccn(NC(=O)c4ccncc4)c(=O)c3c(-c3ccccc3)n2n1	1	-3
O=C(C(=Cc1cccnc1)c1nc2ccccc2o1)c1ccccc1	0	-2
COc1ccc(CCNC(=O)C(C2CCCC2)N2CCN(C(=O)c3ccc4c(c3)OCO4)CC2)cc1 (stereo unspecified)	-3	-3
Cc1ocnc1C(=O)N1CCC2(CCCN(Cc3ccc(F)c(F)c3)C2=O)C1 (stereo unspecified)	-5	-8
CC(=NNC(=O)Cc1cn2ccsc2n1)c1ccco1	23	22
CCCN(CC(=O)N1CCc2sccc2C1c1ccc(F)cc1)C(=O)COc1ccccc1 (stereo unspecified)	20	32
O=C(NCC(F)(F)F)c1ccc(N2C(=O)CCC2=O)cc1	-2	-3
N#Cc1ccc(OS(=O)(=O)c2ccccc2C#N)cc1	-4	-6
CCC1=NN(C(=O)Cc2ccc([N+](=O)[O-])cc2)C(O)(C(C)(C)C)C1 (stereo unspecified)	-11	-14
CCOc1ccccc1C(=O)N1CC(=O)N(Cc2ccco2)CC(O)C1 (stereo unspecified)	1	12
O=C(CSc1nc2ccccc2[nH]1)NCc1ccco1	2	1
CCOC(CNC(=O)c1sc2nc(-c3ccccc3)cn2c1C)OCC	6	4
CC(=O)c1c(C(C)=O)c(C)n(-c2ccc(N)c(C)c2)c1C	4	3
Cc1ccsc1CN(C)c1nc(-c2cccnc2)nc2c1cnn2C	2	0
CC1(C(=O)NS(=O)(=O)c2cccc(Cl)c2)CCN1C(=O)C1(c2ccc(Cl)cc2)CC1 (stereo unspecified)	-1	-3
c1cc(CN2CCCCC2)cc(OCCCNc2nc3ccccc3s2)c1	5	-27
N#Cc1ccc(CSc2ccccc2C(=O)O)c(F)c1	11	1
O=C(CN1CCc2sccc2C1c1cccc(F)c1)N1CCN(C(=O)c2ccccc2Cl)CC1 (stereo unspecified)	12	6
CC(C)NC(=O)c1csc(N2CCN(Cc3ccccc3)C2=O)n1	-4	-7
CN1CCC(C)(C(=O)Nc2cc(-c3ccccc3)nn2C)C1 (stereo unspecified)	1	-1
CCOC(=O)C1(C)CCCCCN1C(=O)c1oc2ccccc2c1C (stereo unspecified)	0	-5
O=C1SC(Nc2ccccc2F)C(=O)N1c1ccccc1 (stereo unspecified)	4	0
CC(C)Oc1cc2oc(=O)c3c(c2cc1Cl)CCC3	9	3
CC(C)NC(=O)[C@@H]1C[C@@H](N)CN1Cc1ccc(-c2cccc(Cl)c2)o1	-1	2
CCn1c(=O)c(C(=O)Nc2ccccc2N)c(O)c2ccccc21	-4	-12
O=C1Nc2ccccc2S(=O)(=O)N1c1ccc(Br)cc1	-1	-2
C=CCn1c(SC(C)c2cccc([N+](=O)[O-])c2)nnc1-c1ccoc1C (stereo unspecified)	8	12
Clc1ccccc1Oc1cc(N2CCc3ccccc3C2)ncn1	7	6
Cc1cccc(N=Cc2nc(-c3ccc(Br)cc3)oc2O)c1	-14	-20
Cc1ccc(-n2nnc3c(SCc4ccccc4)ncnc32)cc1	3	29
CN1CCOC(CNCc2c(Cl)nc3sccn23)C1 (stereo unspecified)	5	3
CCCN(CCC)C(=O)Cc1csc(NC(=O)CN(CC(C)C)C(=O)c2ccccc2Cl)n1	-3	4
Cc1csc(CC(N)=S)n1	6	12
Cc1cc(C(=O)N(CCN(C)C)c2nc3ccc(Cl)cc3s2)n(C)n1	5	3
Following part:
SMILES	NPYLR7 ag	NPYLR7 ag max-min
CCCCSc1nnc2c(n1)OC(C)(CC)Nc1ccccc1-2 (stereo unspecified)	1	-2
COc1ccc(CN2CCN(C3CCN(C(C)C)CC3)C(CCO)C2)c(Cl)c1OC (stereo unspecified)	13	3
O=C(Nc1nnc(-c2cc3ccccc3o2)o1)C1CC1	8	2
O=S(=O)(c1ccc2c(c1)nc(SCc1ccc(OC(F)F)cc1)n2CCCN1CCOCC1)N1CCOCC1	23	16
COCC(=O)N1CCCC(N2CCN(c3ccccc3F)CC2)C1 (stereo unspecified)	6	19
COc1ccccc1NCN1C(=O)c2cc(Cl)c(Cl)cc2C1=O	11	14
CC(C)c1nccn1C(C)C(=O)N1CCC(CCC(=O)N(C)Cc2ccccc2)CC1 (stereo unspecified)	3	0
COc1ccccc1C(=O)Nc1c(C)nc2ccc(C)cn2c1=O	5	2
O=C(CCCl)NCCc1c[nH]c2ccccc12	10	10
Cc1nc(C(C)C)ncc1C(=O)N1[C@@H]2CC[C@H]1CNC(=O)C2	-1	2
Cc1cccc2c1C(NC(=O)c1cnn3c1CCCC3)C(=O)N2 (stereo unspecified)	6	4
O=C(NC(c1ccc(F)cc1)c1cnccn1)C1CCN(Cc2ccc(Cl)cc2)CC1 (stereo unspecified)	10	-3
CC(=O)Oc1cccc(C(=O)N2CCC(c3nc(-c4ccc5c(c4)OCO5)no3)CC2)c1C	-5	-8
Cc1ccc(C(C)C)c(OCC#CCCOn2nnc3ccccc32)c1	31	27
CCOC(=O)C1(CC2CCCCO2)CCN(C(=O)NCc2ccccc2)CC1 (stereo unspecified)	7	1
CN(C)CCN(C(=O)c1cccs1)c1nc2cc3c(cc2s1)OCO3	17	13
Cc1nnc2ccc(OCCNS(=O)(=O)c3cccc(C(F)(F)F)c3)nn12	1	2
Cc1ccc(-c2cc(C(=O)NC3=NCCS3)n[nH]2)s1	5	3
COCC1CCCN(C(=O)c2cc(COc3ccc(F)cc3Cl)on2)C1 (stereo unspecified)	5	8
CN(C)C(=O)COc1ccc(NC(=O)CCN2C(=O)CSc3ccccc32)cc1	4	1
C=CCn1c(SCC(=O)Nc2ccc(O)cc2)nc2sc3c(c2c1=O)CCCC3	-7	-8
O=C(c1ccno1)N(CCCN1CCOCC1)c1nc2c(Cl)cccc2s1	0	27
Cc1nccn1CCC1CCCCN1C(=O)Nc1ccc2c(c1)OCO2 (stereo unspecified)	6	-1
CCOC(=O)c1c(C)oc2ccc(OC(=O)COc3ccccc3)cc12	-1	-7
CCC(C)NC(=O)c1ccc(Cl)c2cccnc12 (stereo unspecified)	-3	-4
CCCCOc1ccc(C(=O)NCCN2CCn3cc(OC)c(=O)cc3C2=O)cc1	11	6
CCN(CC)C(=O)Oc1ccc2c(ccn2Cc2cc(C)cc(C)c2)c1NC(=O)c1c(Cl)cccc1Cl	5	5
O=C(O)c1ccccc1OCCC1CCCCC1	4	1
CCOC(=O)CCC(=O)Nc1ccc(C2SCC(=O)N2c2cc(C)ccc2F)cc1 (stereo unspecified)	7	15
O=C(NCc1ccccn1)c1nn(-c2cccc(Cl)c2)c(=O)n(Cc2ccccc2F)c1=O	-8	-8
CC(C)Cc1nc(CN2C[C@H]3OC(=O)N(CCCN4CCOCC4)[C@H]3C2)no1	4	1
O=C(NCC1CCCO1)c1coc(CN(Cc2ccc3c(c2)OCO3)Cc2cccc(Cl)c2Cl)n1 (stereo unspecified)	18	14
Cc1cc(CS(=O)(=O)C(C)C(C)O)c2ccccc2n1 (stereo unspecified)	10	5
CSCCC(=O)NCc1cccnc1N(C)C1CCCCC1	12	21
C/C=C(\C)CN(Cc1ccncc1)Cc1ccc(F)cc1	13	4
COCc1[nH]n(-c2ccc(Cl)cc2)c(=O)c1C1=C(N2CCN(C)CC2)C(=O)N(c2ccccc2F)C1=O	2	5
CC(C)C(Cn1ccnc1)NC(=O)c1cc2n(n1)CCCN(C)C2 (stereo unspecified)	0	-4
Cn1c(=O)c2c(nc3n2CC(C(C)(C)C)=NN3Cc2ccc(Cl)c(Cl)c2)n(C)c1=O	1	6
N#Cc1c(O)c2c(-c3ccccc3)csc2[nH]c1=O	-4	-2
C=CCn1c(SCc2ccc(C(=O)NCc3ccncc3)cc2)nnc1-c1ccco1	9	7

For reference, 16 of the compounds above:
SMILES	NPYLR7 ag	NPYLR7 ag max-min
CCOC(=O)c1c(C)oc2ccc(OC(=O)COc3ccccc3)cc12	-1	-7
CCC(C)NC(=O)c1ccc(Cl)c2cccnc12 (stereo unspecified)	-3	-4
CCCCOc1ccc(C(=O)NCCN2CCn3cc(OC)c(=O)cc3C2=O)cc1	11	6
CCN(CC)C(=O)Oc1ccc2c(ccn2Cc2cc(C)cc(C)c2)c1NC(=O)c1c(Cl)cccc1Cl	5	5
O=C(O)c1ccccc1OCCC1CCCCC1	4	1
CCOC(=O)CCC(=O)Nc1ccc(C2SCC(=O)N2c2cc(C)ccc2F)cc1 (stereo unspecified)	7	15
O=C(NCc1ccccn1)c1nn(-c2cccc(Cl)c2)c(=O)n(Cc2ccccc2F)c1=O	-8	-8
CC(C)Cc1nc(CN2C[C@H]3OC(=O)N(CCCN4CCOCC4)[C@H]3C2)no1	4	1
O=C(NCC1CCCO1)c1coc(CN(Cc2ccc3c(c2)OCO3)Cc2cccc(Cl)c2Cl)n1 (stereo unspecified)	18	14
Cc1cc(CS(=O)(=O)C(C)C(C)O)c2ccccc2n1 (stereo unspecified)	10	5
CSCCC(=O)NCc1cccnc1N(C)C1CCCCC1	12	21
C/C=C(\C)CN(Cc1ccncc1)Cc1ccc(F)cc1	13	4
COCc1[nH]n(-c2ccc(Cl)cc2)c(=O)c1C1=C(N2CCN(C)CC2)C(=O)N(c2ccccc2F)C1=O	2	5
CC(C)C(Cn1ccnc1)NC(=O)c1cc2n(n1)CCCN(C)C2 (stereo unspecified)	0	-4
Cn1c(=O)c2c(nc3n2CC(C(C)(C)C)=NN3Cc2ccc(Cl)c(Cl)c2)n(C)c1=O	1	6
N#Cc1c(O)c2c(-c3ccccc3)csc2[nH]c1=O	-4	-2

(continued)
SMILES	NPYLR7 ag	NPYLR7 ag max-min
CCc1nnc(NC(=O)CSc2nc(=O)n(CCO)c3c2CCC3)s1	-7	-15
Cc1cccc2[nH]c(C3CCCN3Cc3ncccc3C(=O)O)nc12 (stereo unspecified)	-2	-5
CCOC(=O)c1sc(-c2ccccc2)cc1NC(=O)CCl	-4	-11
FC(F)(F)c1cccc(Cc2c[nH]c(=S)s2)c1	-6	-6
COc1ccc(-c2cc(C3(CNc4ccc5c(c4)OCO5)CC3)ccn2)cn1	14	23
CC(c1cccs1)N(C)C(=O)c1cccc(C#CC(C)(C)O)c1 (stereo unspecified)	15	11
COc1cc2c(cc1OC)C(c1cccs1)N(CC(=O)Nc1ccccc1)CC2 (stereo unspecified)	14	13
Cc1cc(C)cc(CNCc2ccc(CS(C)(=O)=O)cc2)c1	-1	-5
Cc1noc(C)c1S(=O)(=O)NCCN1CCCc2ccccc21	0	2
O=C(COCC1CCCCO1)NCc1cccnc1N1CCc2ccccc2C1 (stereo unspecified)	8	-3
CN(Cc1nc2ccccc2c(=O)[nH]1)C(=O)CCc1cccs1	-4	-3
Cc1nc(NCCNC(=O)COc2ccc(Cl)cc2)cc(-n2cccn2)n1	-4	-3
COc1ccc2[nH]c3c(c2c1)CCN(C(=O)CCCCCCl)C3c1ccc(-c2ccccc2C(F)(F)F)o1 (stereo unspecified)	6	8
O=C(CN1CCSC1=O)NC(c1ccccc1)c1cccs1 (stereo unspecified)	-1	-2
Cc1ccccc1-n1c(Cc2ccccc2)nnc1SCCCCC(=O)N1CCN(C(=O)c2cccc(C(F)(F)F)c2)C(C)C1 (stereo unspecified)	-18	-16
